D2 ag = Beta-Arrestin HTS for Positive Allosteric Modulators of the Human D2 Dopamine Receptor: Agonists; D(2) dopamine receptor (Homo sapiens), P14416; DiscoveRx PathHunter D2 beta-arrestin, luminescence, 90 min; 100% = 57 uM dopamine signal; activation, % (test concentration not listed); 360,000 tested, 0.084% active; in the data active = activation above about 40%; inconclusive = about 15% to 40%; inactive = below about 15%; note: compound concentration not given in the record; the text of the record calls up to 30% inactive
Target sequence (P14416 whole entry, looked up): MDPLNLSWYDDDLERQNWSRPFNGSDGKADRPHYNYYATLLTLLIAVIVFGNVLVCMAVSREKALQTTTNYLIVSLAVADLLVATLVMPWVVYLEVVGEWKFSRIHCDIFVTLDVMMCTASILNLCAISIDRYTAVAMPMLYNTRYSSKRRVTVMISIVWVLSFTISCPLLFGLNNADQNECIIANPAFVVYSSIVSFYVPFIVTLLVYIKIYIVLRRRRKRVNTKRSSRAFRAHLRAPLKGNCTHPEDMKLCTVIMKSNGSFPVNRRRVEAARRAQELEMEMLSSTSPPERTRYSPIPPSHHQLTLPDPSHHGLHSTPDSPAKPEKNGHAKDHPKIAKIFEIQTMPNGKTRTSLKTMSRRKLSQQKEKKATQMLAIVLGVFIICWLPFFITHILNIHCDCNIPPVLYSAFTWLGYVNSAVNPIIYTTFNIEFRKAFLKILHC
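DiscoveRx PathHunter D2 beta-arrestin cells (2,100/well) attached overnight, then compound-stimulated 90 min at 37 C in HBSS/10 mM HEPES/0.1% Tween-20 buffer; beta-galactosidase complementation read by luminescence after 1 h at ambient temperature. Dopamine 57 uM final (EC100) as control.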
CtBP-E1A blk = qHTS Assay for Inhibitors of the CtBP/E1A Interaction; CtBP / adenovirus E1A interaction (AlphaScreen); activity change, % (test concentration not listed); AlphaScreen GST-E1A/His-CtBP binding, 1536-well; hits give low values; control for the full effect not named in the record; AID 651724, 2012; 340,000 tested, 0.49% active; in the data active means activity change below about -65%; inconclusive means about -30% to -65%; inactive means above about -30%; note: % is set by controls: 0 for no effect and ±100 for the full control effect; compound concentration not given in the record
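GST-E1A and His-tagged CtBP (125 nM each as 5X stock) were preincubated with pin-transferred compound for 2 h at 37 °C in the dark, then glutathione donor and nickel acceptor beads were added for 1 h before AlphaScreen reading.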
TRPML1 ag = qHTS for Agonists of the Human Mucolipin Transient Receptor Potential 1 (TRPML1); TRPML1-expressing cells, Ca2+ dye fluorescence, FDSS; host cell line not named in the record; reference of the full effect not given here; activation, % (test concentration not listed); 410,000 tested, 0.12% active; AID 624414, 2012; in the data active = activation above about 50%; inconclusive = about 30% to 50%; inactive = below about 30%; note: 0% is about no effect; the text of the record puts the active cut at 80%
Target sequence (Q9GZU1 whole entry, looked up): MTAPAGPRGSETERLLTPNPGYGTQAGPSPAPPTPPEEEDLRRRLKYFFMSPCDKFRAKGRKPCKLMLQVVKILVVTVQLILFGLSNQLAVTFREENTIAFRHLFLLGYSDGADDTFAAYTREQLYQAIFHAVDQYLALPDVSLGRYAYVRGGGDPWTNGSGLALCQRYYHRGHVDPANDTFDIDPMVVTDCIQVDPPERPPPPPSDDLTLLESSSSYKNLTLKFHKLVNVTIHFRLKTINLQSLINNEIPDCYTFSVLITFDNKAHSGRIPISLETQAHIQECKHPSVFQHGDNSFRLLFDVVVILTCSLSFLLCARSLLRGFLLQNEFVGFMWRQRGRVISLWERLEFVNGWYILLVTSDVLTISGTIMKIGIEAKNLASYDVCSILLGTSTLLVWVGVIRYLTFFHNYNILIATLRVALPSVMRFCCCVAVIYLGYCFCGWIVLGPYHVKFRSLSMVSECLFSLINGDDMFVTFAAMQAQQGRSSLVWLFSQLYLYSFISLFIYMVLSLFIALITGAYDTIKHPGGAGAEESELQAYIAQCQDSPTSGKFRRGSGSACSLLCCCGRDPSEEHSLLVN
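In this qHTS format, compounds were pin-transferred onto Ca8-dye-loaded TRPML1-DL cells induced with Tet overnight, and intracellular Ca2+ fluorescence was recorded kinetically for 110 s after a 10 s baseline. A subsequent 4uM final 54-4 (EC80) addition followed by a second 110 s read served as the antagonist phase.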
Six1-Eya2 inh = qHTS Assay for Inhibitors of the Six1/Eya2 Interaction; AID 651725, 2012; 360,000 tested, 0.56% active; AlphaScreen GST-Six1/His-Eya2 binding, biochemical; hits give low values; control for the full effect not named in the record; activity change, % (concentration not given with the values); in the data active = activity change below about -65%; inconclusive = about -30% to -65%; inactive = above about -30%; note: % is set by controls: 0 for no effect and ±100 for the full control effect
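AlphaScreen with GST-Six1 and His-Eya2 (5X mix: 250 nM and 500 nM), glutathione donor and nickel acceptor beads; buffer 50 mM Tris pH 8.0, 300 mM NaCl, 1 mM TCEP; 1 h at 37 C in the dark.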
TRPML1 inh = qHTS for Inhibitors of the Human Mucolipin Transient Receptor Potential 1 (TRPML1); TRPML1-inducible cells, Ca2+ dye fluorescence, FDSS; hits give low values; inhibition of EC80 agonist-evoked calcium signal; 390,000 tested, 0.02% active; Mucolipin-1 (Homo sapiens), Q9GZU1; AID 624415, 2012; activity change, negative = inhibition, % (concentration not given with the values); in the data active means activity change below about -50%; inconclusive means about -30% to -50%; inactive means above about -30%;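 note: stimulus is agonist 54-4 at its EC80 concentration; % is set by controls: 0 for no effect and ±100 for the full control effect; compound concentration not given in the record; the text of the record puts the active cut at -80%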
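TRPML1-DL cells, Tet-induced overnight (~16 h, 37 °C) at 1,500 cells/well, were loaded with Ca8 no-wash dye plus quencher for 45-90 min at room temperature. Compounds were pinned during FDSS kinetic reading; agonist 54-4 at EC80 (4 uM final) then added.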
PINK1 modulator = A Quantitative High throughput Screen to Identify Chemical Modulators of PINK1 Expression; PINK1 immunofluorescence, high-content cytometry, 24 h; AID 624263, 2012; 410,000 tested, 0.2% active; Potency, µM (doses to about 76.6 µM), without a hit: top-dose activation (PINK1 increase), hits mostly activators; active = well fitted activation curve with a large enough effect; inconclusive = small, poorly fitted or top-dose-only effect; inactive = flat fitted curve, though single readings scatter; cell line not stated here;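 note: potency is the fitted concentration of half-maximal effect; % of control where 0% means no effect; nearly all actives have a fitted effect of over 65% in size; a mitochondrial uncoupler was the plate control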
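PINK1 protein, normally rapidly degraded, was detected by immunofluorescence after 24 hour compound treatment of a stable cell line. Titration data (5 concentrations) came from laser-scanning cytometry, with CCCP-treated wells as controls.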
Active calls of the source: *; u = inconclusive; x = no result given; & = joins results of further samples; [ ] = remark or other dose. The order is random. About 1% of those tested had a hit in this group.

SMILES	D2 ag	CtBP-E1A blk	TRPML1 ag	Six1-Eya2 inh	TRPML1 inh	PINK1 modulator
COc1ccc(C)cc1N(C)C(=O)c1c(C)oc2ncnc(N3CCOCC3)c12	x	x	1.6	x	6	1.2%
CCOc1ccccc1OC(=O)c1cc2ccccc2oc1=O	6.4	x	1.0	3	6	-0.7%
COc1ccc(NC(=O)C2CCN(S(=O)(=O)c3c(C)noc3C)CC2)cc1OC	0.7	-2	-0.2	3	2	0.4%
COc1ccc(/C=N\NC(=O)COc2ccc(C(C)(C)C)cc2)cc1Cn1nc(C)cc1C	4.6	0	0.5	9	-4	9.1%
CC(=O)Nc1nccc(-c2cc(-c3ccccc3)no2)n1	-2.5	-10	3.4	-3	-2	-0.7%
Cc1ccc(NC(=O)/C(C#N)=C(\N)C(Cl)(Cl)Cl)nc1	-0.1	-16	1.3	u	5	-2.8%
Cc1cc(C)c2c(NC(=S)NC(=O)c3ccccc3)n[nH]c2n1	-6.0	2	-0.1	0	-20	10%
O=C(COc1cccc(Cl)c1)Nc1cc(S(=O)(=O)N2CCOCC2)ccc1N1CCOCC1	3.8	x	1.6	-3	u	1.7%
CC(C)CC(=O)Nc1nnc(S(=O)(=O)N2CCc3ccccc32)s1	3.2	-21	1.7&1.8	5	u	2.3%&0.0%
Cc1ccc(C(C)C)c(OCC(=O)NN=C2CCCC2)c1	4.7	x	1.4	-6	25	-1.2%
C=CCOC(=O)c1sc(NC(=O)c2ccc(OC)cc2)nc1C	-1.0	5	0.6	3	-11	13%
COc1ccccc1-c1nnc(NC(=O)c2ccc(S(=O)(=O)N(C)Cc3ccccc3)cc2)o1	-7.0	-22	-0.2	-15	2	2.1%
CCOC(=O)C1=C(C)N=c2s/c(=C\c3cc(OC)c(OC)c(OC)c3)c(=O)n2C1/C=C/c1ccccc1 (stereo unspecified)	-5.6	11	1.0	0	10	3.7%
CC1CCN(c2ccc(C(=O)O)cc2N)CC1	-0.2	2	1.6	-2	5	-0.9%
CCOC(=O)CNC(=O)C1CCCN(c2ncccn2)C1 (stereo unspecified)	-2.4	u	-0.2	-83*	77	6.8%[38.3 µM]
O=C(NCCCN1CCN(c2ccc(F)cc2)CC1)C1CCCN(c2ncnc3c2nc2n3CCCCC2)C1 (stereo unspecified)	-0.7	-3	0.0	-9	-7	0.2%
Cc1ccc(CNC(=O)Cn2ccn(-c3cc(C)cc(C)c3)c(=O)c2=O)cc1	x	x	-0.2	x	8	0.1%
Cc1ccc(C(=O)Nc2ccc3ccccc3c2)cc1	0.5	7	0.7	2	5	9.3%
COCCN(C(=O)Cn1nnc2ccccc21)C(C(=O)NC1CCCC1)c1ccc(OC)cc1OC (stereo unspecified)	-1.9	-3	-0.4	-4	1	-1.1%
CCCc1cc(=O)oc2cc(OCC(=O)NCc3cccs3)ccc12	-4.5	2	1.2	-2	1	7.7%
CC1CCCCC1NC(=O)/C(C#N)=C/c1ccc2c(c1)OCCO2 (stereo unspecified)	-1.8	0	2.1	7	-3	5.7%
O=C(CSc1nc2ccccc2[nH]1)N1CCCCC1	-1.1	17	-0.5	-1	20	0.1%[38.3 µM]
CCC(=O)C1=C(N2CCCC2)CC(C)(C)CC1=O	-2.7	3	0.7	4	4	1.8%
Cc1ccc(-c2cc(C(=O)OCC(=O)N(C)C3CCS(=O)(=O)C3)c3ccccc3n2)c(C)c1 (stereo unspecified)	-1.7	2	-0.9	-6	1	3.6%
COc1ccc(CCN=C(N)NS(=O)(=O)c2ccccc2)cc1OC	-5.5	-21	-0.4	-7	-13	-1.2%
N#Cc1ccc(C23CC4CC(CC(C4)C2)C3)[nH]c1=O	-3.1	4	0.6	3	2	-1.1%
Cc1ccc2cc(CN(CC3CCCO3)C(=S)Nc3ccccc3)c(=O)[nH]c2c1 (stereo unspecified)	-3.9	0	0.9	15	7	6.6%
CC(=O)Nc1ccc(Sc2ccccc2C(=O)Nc2ccc(F)cc2)cn1	1.1	x	6.7	-1	8	0.5%
COc1ccc(Cl)cc1S(=O)(=O)N1CCN(C(=O)c2ccco2)CC1	-1.4	0	0.7	-11	-9	1.5%
CCC1CCc2nc3sc(C(=O)Nc4ccc(F)cc4F)c(N)c3cc2C1 (stereo unspecified)	x	x	-0.2	x	-3	-0.4%
O=C(CNc1cccc(S(=O)(=O)N2CCCCC2)c1)Nc1ccccc1F	4.6	0	-0.3	-1	-9	0.8%
CCC(CC)c1nnc(NC(=O)c2ccc3ccccc3n2)s1	3.2	-7	0.7	0	52	0.3%
O=c1[nH]c(C2CCCN(S(=O)(=O)c3ccccc3)C2)nc2c1nnn2Cc1ccc2c(c1)OCCO2 (stereo unspecified)	-4.6	x	2.4	3	11	0.6%
COc1ccc(OCC(=O)Nc2ccc(-c3nc4cc(C)c(C)cc4o3)cc2)cc1	x	x	2.1	x	-12	-1.5%
O=C(COC(=O)c1ccc(S(=O)(=O)N2CCCCC2)cc1)NCc1ccc(F)cc1	-2.0	-29	0.3	1	14	2.9%
CN(C)S(=O)(=O)c1cccc(NC(=O)CSc2cccc3cccnc23)c1	-5.7	-91*	-0.4	-91*	9	-1.2%
Cc1ccccc1C(=O)c1cccn1CC(=O)NCc1ccco1	-3.2	2	0.0	-4	4	3.7%
COc1ccc(NC(=O)CSCC(=O)N=c2sccn2C)cc1	1.9	4	-0.5	5	-9	-0.3%
C=CCNC(=O)c1onc(CSc2ccc(F)c(F)c2)c1C(=O)O	-2.0	3	0.1	4	1	1.3%
ClCCn1c(CCl)nc2ccc(Cl)cc21	-3.5	4	-1.1	7	6	-1.2%
CCC(C)NC(=O)Cn1c(=O)c2cccn2c2ccc(F)cc21 (stereo unspecified)	x	x	1.1	x	-3	0.7%
CC(SC(=S)N1CCOCC1)C(=O)O (stereo unspecified)	-0.9	4	0.2	11	11	1.7%
COc1cccc(NC(=O)c2nc3ncccn3n2)c1	0.7	-2	-0.3	9	-3	-0.8%
CCN(Cc1nc2ccccc2c(=O)[nH]1)C(=O)c1cccc(NC(=O)c2cccs2)c1	-1.4	1	0.7	-1	26	0.0%
CCc1nn(CC(=O)NCc2cccc(OC)c2)c(=O)c2cc3cc(F)ccc3n12	x	x	-0.8	x	-6	-0.8%
CCCNC(=O)c1ccc2c(c1)sc1nc(-c3ccc(C)cc3)cn12	x	x	0.7	x	41	2.7%
CCOC(=O)c1c(C)oc(/N=C/c2ccccc2O)c1C#N	11	-1	-0.2	0	-7	2.3%
COc1ccc(NC(=O)C(=O)NCc2ccco2)c(OC)c1	x	x	-0.9	x	-9	6.5%
COc1cccc(-c2nnc3n2N=C(C(C)(C)C)CS3)c1	-2.2	1	0.6	-1	-25	-1.5%
O=C(Nc1ccc(F)cc1F)c1cc(S(=O)(=O)N2CCCCC2)c[nH]1	x	x	1.1	x	9	4.4%
Following part.
SMILES	D2 ag	CtBP-E1A blk	TRPML1 ag	Six1-Eya2 inh	TRPML1 inh	PINK1 modulator
CC1CCCCC12NC(=O)N(CC(=O)N1CCc3ccccc31)C2=O (stereo unspecified)	-3.7	5	0.1	0	-3	-1.6%
O=C(CSc1nnc(-c2cc(-c3cccs3)nc3ccccc23)o1)NC1CCCCC1	-3.5	4	0.6	2	-15	14%
Cc1c(Cc2ccccc2)c(=O)oc2c(C)c(OC(C)C(=O)NCC3CCC(C(=O)O)CC3)ccc12 (stereo unspecified)	-4.0	-21	x	5	x	0.4%
COc1ccc2c(c1)cc1c(=O)n(CC(=O)NC(C)CCc3ccccc3)nc(C)n12 (stereo unspecified)	10	-23	-0.8&-0.9	5	-6&-13	-0.9%&3.9%
COc1cc(Nc2ccn3nc(-c4ccccc4Cl)cc3n2)cc(OC)c1OC	-3.5	-22	-0.4	-8	x	5.9%
COC(=O)c1ccc(Oc2coc3cc(OCc4cnn(-c5ccccc5)c4)ccc3c2=O)cc1	-2.6	1	1.1	-2	-2	3.1%
Cc1ccc(S(=O)(=O)N2CCN(C(=O)COC(=O)/C=C/c3ccc(C(F)(F)F)cc3)CC2)c(C)c1	-0.3	x	0.3	24	20	0.6%
OC(CNC1Cc2ccccc2C1)COc1ccc(F)cc1 (stereo unspecified)	-6.1	0	1.1	-8	4	8.8%
Cc1ccc(CNC(=O)C2CCCN2C(=O)Nc2ccccc2)cc1 (stereo unspecified)	-5.1	-7	0.3	7	-10	0.1%
CN(CCOc1ccccc1)C(=O)c1ccc(Cl)c(S(=O)(=O)N2CCCCC2)c1	-3.0	x	1.2	7	6	-0.9%

Profiles, quoted from the list. Order of values: D2 ag	CtBP-E1A blk	TRPML1 ag	Six1-Eya2 inh	TRPML1 inh	PINK1 modulator
COc1ccc2c(c1)cc1c(=O)n(CC(=O)NC(C)CCc3ccccc3)nc(C)n12 (stereo unspecified) in the list: 10	-23	-0.8&-0.9	5	-6&-13	-0.9%&3.9%
Cc1ccc(CNC(=O)C2CCCN2C(=O)Nc2ccccc2)cc1 (stereo unspecified) in the list: -5.1	-7	0.3	7	-10	0.1%
COC(=O)c1ccc(Oc2coc3cc(OCc4cnn(-c5ccccc5)c4)ccc3c2=O)cc1 in the list: -2.6	1	1.1	-2	-2	3.1%
Cc1c(Cc2ccccc2)c(=O)oc2c(C)c(OC(C)C(=O)NCC3CCC(C(=O)O)CC3)ccc12 (stereo unspecified) in the list: -4.0	-21	x	5	x	0.4%
COc1cc(Nc2ccn3nc(-c4ccccc4Cl)cc3n2)cc(OC)c1OC in the list: -3.5	-22	-0.4	-8	x	5.9%

The list goes on.
SMILES	D2 ag	CtBP-E1A blk	TRPML1 ag	Six1-Eya2 inh	TRPML1 inh	PINK1 modulator
CCc1ccc(NC(=O)C2=C(C)C(=O)OC23CCCCC3)cc1	x	x	0.7	x	21	0.9%
COc1ccc(Cl)cc1Nc1nc(N)nc(C(F)(F)F)n1	1.2	10	0.7	0	-9	-7.2%[38.3 µM]
CCC(C)NC(=O)c1sc2nc(C)c(C(=O)Nc3ccc(C)cc3C)c(-c3ccc(NC(C)=O)cc3)c2c1N (stereo unspecified)	x	x	0.9	x	-13	2.8%
Cc1ccc(C(=O)NCc2nnc(SCC(=O)Nc3ccccc3)n2C)cc1	-0.8	-6	0.7	3	8	1.1%
O=C(CCNC(=O)C1CCN(S(=O)(=O)c2ccc(F)cc2)CC1)NCc1ccncc1	3.9	4	0.2	4	32	0.5%
CCOC(=O)N1CCN(c2cc(=O)n(-c3ccc(OC)cc3)c(=O)[nH]2)CC1	1.1	9	2.0	-1	-1	1.0%[38.3 µM]
COC(=O)c1cn(NC(=O)c2ccc(OC)c([N+](=O)[O-])c2)c(=O)c2ccccc12	-4.6	-14	-1.0	-1	-5	0.1%
O=C(Cn1nnc(-c2ccncc2)n1)NCCc1ccccc1	0.5	6	0.4	2	6	x
CCCc1cc(C(=O)Nc2cc(OC)ccc2OC)cs1	2.8	-10	2.4	-12	13	-1.8%

Compound activity: PubChem, National Center for Advancing Translational Sciences (NCATS)
